# CDC25B CDK2 inh: human CDC25B-CDK2/CyclinA binding inhibition | P30305+P24941 | HTRF CDC25B-CDK2/CyclinA binding, anti-His/anti-Flag; active compounds read high | z-score (test concentration not listed) | 94,000 compounds, 0.72% hits | AID 1259370;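 also: score is relative to mean and SD of negative controls; strong numbers were not always called active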
# HIV TAR-Tat: HIV-1 TAR-Tat binding disruption; HIV-1 TAR RNA, Tat peptide displacement FRET; active compounds read high; z-score (concentration not given with the values); 100,000 compounds, 0.6% hits;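 also: score is relative to mean and SD of negative controls; some compounds called inactive have numbers as strong as hits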
# * hit, by the source's call; nt = no result given.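 The calls were made as follows: active = z-score from 3 up in half or more of its runs; inactive = the rest.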
Molecule | CDC25B CDK2 inh | HIV TAR-Tat
Cc1c(C(=O)NC2CCCCC2C)sc2nc3n(c(=O)c12)CCCC3 (stereo unspecified) | nt | 0.65
CN1CCN(CCCNc2nc3ccccc3c3nc(-c4ccccc4)nn23)CC1 | -0.37 | -0.25
CC1(C)CC2CC(C)(CN2c2ncnc3ccccc23)C1 (stereo unspecified) | 0.36 | nt
COc1cc(OC)c(NC(=O)CCS(=O)(=O)c2cccc3nonc23)cc1Cl | nt | 0.97
Cc1ccc(C2CC(c3cccc(C)c3)n3nc(N)nc3N2)cc1 (stereo unspecified) | 0.48 | 0.73
Oc1ccc(-c2csc(Nc3ccccn3)n2)cc1 | -1.51 | 1.22
O=c1c2ccccc2c(-c2ccc(Cl)cc2)nn1CN1CCOCC1 | -0.72 | nt
Cc1ccc(-c2nc3c4c(C)c(C)n(-c5ccccn5)c4ncn3n2)cc1 | -0.96 | 1.01
COc1ccc2[nH]c(C(=O)NCc3cc(Br)ccc3OC)c(N3CCCC3=O)c2c1 | -1.63 | 0.21
C=CC[n+]1sc2ccc(Cl)cc2c1C | 1.75 | -0.29
COC(=O)CN1C(=O)CSc2ccc(S(=O)(=O)Nc3cc(Cl)ccc3OC)cc21 | nt | -0.11
O=C(c1cc2c(s1)-c1ccc(Cl)cc1SC2)N1CCCC1 | -0.43 | 0.25
CCOC(=O)c1sc(NC(=O)c2ccc([N+](=O)[O-])s2)nc1C | 0.52 | 2.69
O=C(OCCOCCN=C1NS(=O)(=O)c2ccccc21)c1ccc(F)cc1 | 1.25 | 0.41
CC1CN(C(=O)Cn2cc(SCC(=O)N3CCCC3)c3ccccc32)CC(C)O1 (stereo unspecified) | nt | 1.47
CS(=O)(=O)N(CC(=O)Nc1cccc(Br)c1)c1cccc(C(F)(F)F)c1 | 0.59 | nt
CCN(CC)C(=O)CSc1nc(-c2ccc(F)cc2)nc2c1Cc1c(CO)cnc(C)c1O2 | nt | -0.3
Cc1cc(C)n(-c2cc(NCCC(C)C)ncn2)n1 | nt | 1.93
C=CCn1c(OCc2ccccc2)n[nH]c1=S | -1.71 | nt
Cc1ccccc1N1C(=O)c2ccccc2C1Nc1ccc2c(c1)OCCO2 (stereo unspecified) | 0.1 | -0.72
CCc1cccc(C)c1NS(=O)(=O)c1cc(-c2cc(C)no2)ccc1C | nt | 0.3
CCc1ccccc1OCCSc1nnc(-c2cccs2)o1 | -1.68 | 1.95
COc1ccc(N2CCN(C(CNS(=O)(=O)c3ccc(OC)cc3)c3ccco3)CC2)cc1 (stereo unspecified) | nt | 1.08
CCC(=O)N1CC2(C)CN(C(=O)CC)CC(C)(C1)C2 | -0.99 | 1.31
CC1CCc2c(sc3c2CSC(C(=O)NC2CCCCC2)=C3)C1 (stereo unspecified) | nt | 0.01
O=C(CCc1ccccc1)Nc1nnc(SCc2cc(=O)n3ccsc3n2)s1 | nt | 0.71
O=C(COC(=O)c1cccc(S(=O)(=O)N2CCOCC2)c1)c1ccccc1 | -1.97 | 1.21
Cn1c(=O)[nH]c(=O)c2c1nc(CN1CCN(c3ccccc3)CC1)n2Cc1c(F)cccc1Cl | -1.61 | 1.28
Cc1c(C(=O)N(Cc2ccco2)c2ccccn2)oc2ccc(Br)cc12 | -4.02 | 1.05
O=C1CCc2cc(S(=O)(=O)N3CCCc4ccccc43)cc3c2N1CCC3 | nt | 1.84
CCOC(=O)C1CCN(C(=O)C2CCN(c3nnc(-n4cccc4)s3)CC2)CC1 | -0.61 | 3.66
NC(=O)c1c(NC(=O)C2CCCN(C(=O)c3cc(F)cc(F)c3)C2)sc2c1CCCC2 (stereo unspecified) | -1.53 | 1.66
CCOc1ccc(NS(=O)(=O)c2c(C)nc3sc(C)cn3c2=O)cc1 | nt | 0.02
CCc1ccc(C(=O)CC2(O)C(=O)Nc3c(C)ccc(Cl)c32)cc1 (stereo unspecified) | -0.01 | nt
CCCN1C(=O)C2(c3ccccc31)c1c(oc3ccc(C)cc3c1=O)C(=O)N2CC1CCCO1 (stereo unspecified) | 1.93 | 1.81
Cc1ccc(C)c(-c2cn3ncsc3n2)c1 | -0.11 | 1.87

# Entries of single compounds, looked up by structure. Values in the order: CDC25B CDK2 inh, HIV TAR-Tat
# Shown for O=C(CCc1ccccc1)Nc1nnc(SCc2cc(=O)n3ccsc3n2)s1 : nt, 0.71
# Shown for CCCN1C(=O)C2(c3ccccc31)c1c(oc3ccc(C)cc3c1=O)C(=O)N2CC1CCCO1 (stereo unspecified) : 1.93, 1.81
# Shown for O=C(COC(=O)c1cccc(S(=O)(=O)N2CCOCC2)c1)c1ccccc1 : -1.97, 1.21
# Shown for CCOC(=O)C1CCN(C(=O)C2CCN(c3nnc(-n4cccc4)s3)CC2)CC1 : -0.61, 3.66
# Shown for Cn1c(=O)[nH]c(=O)c2c1nc(CN1CCN(c3ccccc3)CC1)n2Cc1c(F)cccc1Cl : -1.61, 1.28

# (continued)
Molecule | CDC25B CDK2 inh | HIV TAR-Tat
c1csc(-c2nc(-c3ccc4c(c3)nnn4C3CCCC3)no2)c1 | nt | -0.46
CCN(CC)c1ccc(CNC(CC(=O)O)c2c[nH]c3ccccc23)cc1 (stereo unspecified) | -0.72 | nt
COC(=O)c1ccc(-n2nnc(-c3nc(-c4ccc5c(c4)OCO5)no3)c2C)cc1 | nt | 0.74
COc1ccc(Nc2nc3c([nH]2)c(=O)[nH]c(=O)n3C)cc1 | -2.55 | 1.51
Cc1cc2c(cc1S(=O)(=O)N1CC(C)CC(C)C1)OCCN2C (stereo unspecified) | nt | 1.31
Cc1cc(C(=O)NC2CCCCC2)no1 | -1.48 | 0.58
COCCCN1C(=O)C(=O)/C(=C(\O)c2ccc(F)cc2)C12C(=O)N(C)c1ccccc12 (stereo unspecified) | -1.38 | 0.35
Cc1c(-c2cc(N)n(C)n2)sc2ccc(Cl)cc12 | -1.3 | nt
CC1=CN(C2=NS(=O)(=O)c3ccccc32)C(C)(O)C1 (stereo unspecified) | -1.11 | nt
CCCc1c(O)nc(SCc2ccccc2)[nH]c1=O | -0.06 | 0.96
CCCc1nc2nc(C)cc(Nc3ccccc3)n2n1 | 0.06 | 0.47
C/C(=N\NC(N)=O)c1ccccc1 | -0.97 | nt

# The last two compounds of the part above lead into the next:
Molecule | CDC25B CDK2 inh | HIV TAR-Tat
CCCc1nc2nc(C)cc(Nc3ccccc3)n2n1 | 0.06 | 0.47
C/C(=N\NC(N)=O)c1ccccc1 | -0.97 | nt
CC(C)CNc1ncnc2nc[nH]c12 | -1.21 | nt
O=C(CCc1nc2sc3c(c2c(=O)[nH]1)CCCCC3)N1CCC(Cc2ccccc2)CC1 | nt | 4.3*
CC1(C)CC(=O)c2cnc3c(C(=O)NCCCN4CCCC4)cnn3c2C1 | nt | 1.77
CC1CN(CCO)Cc2ccc(Cl)cc21 (stereo unspecified) | -0.37 | 0.88
CSc1nsc(SCC(=O)Nc2ccc3c(c2)OCCO3)n1 | -2.34 | 1.74
COc1ccc(N2C(=O)c3cccnc3C2O)cc1 (stereo unspecified) | 0.19 | 0.72
Cc1c(Cl)cccc1-n1nnc(-c2nc(-c3ccccc3F)no2)c1N | nt | 0.44
COc1ccc(OC)c(C2CC(=O)C3=C(C2)NC(=O)CC3c2ccc(F)cc2)c1 (stereo unspecified) | -1.85 | 2.5
CCCCSc1nnc2c(n1)OC(c1ccc(C)o1)N(C(C)=O)c1ccccc1-2 (stereo unspecified) | -0.34 | -0.61
CCC1Sc2ccc(S(=O)(=O)Nc3cccc(Cl)c3)cc2NC1=O (stereo unspecified) | nt | 0.61
C=C(C)Cn1c(SCC(=O)OC)nc2sc3c(c2c1=O)CC(C)(C)OC3 | -7.72 | nt
O=S(=O)(CCN(Cc1ccc(F)cc1)S(=O)(=O)c1ccc2c(c1)CCCC2)N1CCNCC1 | nt | -0.01
Cc1nnc2c(NCCCN3CCC(Cc4ccccc4)CC3)nc3ccccc3n12 | 0.27 | 1.05
CSc1cccc(NC(=O)CSc2nnc(C)n3c2cc2sccc23)c1 | nt | 3.77
Clc1ccccc1Cn1cccc1C1=NCCO1 | nt | -0.73
Cc1ccc2c(c1)N(C(=O)Nc1cc(Cl)ccc1C)CC(C)O2 (stereo unspecified) | nt | 1.12
C1=C[C@H]2c3ccccc3N[C@@H](c3ccncc3)[C@H]2C1 | -0.73 | nt
CC1(C)Cc2c(C#N)c(SCC(=O)NCC3CCCO3)nc(N3CCOCC3)c2CO1 (stereo unspecified) | -0.78 | 0.79
COc1ccc(N2CCN(S(=O)(=O)c3cc4c5c(c3)CC(=O)N5CCC4)CC2)cc1 | nt | 0.92
O=C(Nc1c(C(=O)N2CCN(C(=O)c3ccco3)CC2)oc2ccccc12)C1CCCC1 | nt | 1.48
O=C(COCc1cc(-c2ccc3c(c2)OCO3)on1)Nc1ccc(Cl)cn1 | nt | -1.71
Cc1ccc(O)c(C2=NN3C(C2)c2cc(Cl)ccc2OC3c2ccncc2)c1 (stereo unspecified) | 0.11 | -0.92
CCOC(=O)c1c(NC(=O)CSc2nc3ccccc3s2)sc2c1CCC2 | 0.75 | -1.1
CCSc1nnc(NC(=O)c2nn(-c3ccc(F)cc3)ccc2=O)s1 | -1.6 | 1.45
Cc1nn(C(C)C(=O)N2CCCC2)c(=O)c2cc3sccc3n12 (stereo unspecified) | -0.57 | nt
COc1ccc(C(=O)CSC2=NS(=O)(=O)c3cc(F)ccc3N2)cc1 | nt | 0.06
COC(=O)c1cc(-c2ccc(S(=O)(=O)N3CCc4ccccc4C3)s2)on1 | nt | -0.2
Cc1cc(C)n(CC(O)Cn2c(C)c(C)c3ccccc32)n1 (stereo unspecified) | -1.98 | 2.87
O=C(NCCN1CCCc2ccccc21)c1[nH]nc2c1COc1ccccc1-2 | nt | 0.67
CNC(=O)c1sc2nc(C)cc(C)c2c1-n1cccc1 | -2.37 | -1.6
Cc1nnc(C(C)C)n1C1CC2CCC(C1)N2CC[C@H](NC(=O)C1CCC(F)(F)CC1)c1ccccc1 (stereo partly specified) | -1.59 | nt
CCOc1ccc2nc(NC(=O)c3ccc([N+](=O)[O-])o3)sc2c1 | 1.72 | 5.82
CCc1ccccc1NS(=O)(=O)c1cn(C)cn1 | nt | 1.61
COC(=O)C1=CN(C)C=C(C(=O)OC)C1c1ccc(C(F)(F)F)cc1 | -2.64 | nt
O=C1NCCc2c1[nH]c1ccc(C3CCCCC3)cc21 | -0.61 | 0.99
CCCCCCCCCCCC(=O)Nc1cc(OC)ccc1OC | 0.03 | nt
CCCCN(C)C(=O)Cn1cc(S(=O)(=O)NC)c(S(=O)(=O)NC)c1 | nt | -0.26
CC1CC(=O)Nc2cc(S(=O)(=O)NCc3cccnc3)ccc2S1 (stereo unspecified) | nt | 1.67
Cc1c(CNCc2ccc3c(c2)OCO3)c(C(=O)O)c(C)n1Cc1ccc(F)cc1 | -0.2 | 1.03
Cc1cccn2c(=O)c3cc(C(=O)NC4CCCC4)sc3nc12 | 0.71 | nt
CC1=C(C(=O)OCCc2ccccc2)C(c2ccccn2)C2=C(CC(C)(C)CC2=O)N1 (stereo unspecified) | 0.16 | -0.15
COc1ccc(Nc2c(-c3ccc(N4CCOCC4)cc3)nc3ncccn23)cc1OC | -2.42 | 0.55
CCc1ccc(C2C=C(c3ccc(Cl)cc3)Nc3ncnn32)cc1 (stereo unspecified) | nt | 0.5
O=C(C1CCCN(c2nn3c(=O)c4c(nc3s2)CCCC4)C1)N1CCN(c2ccccc2)CC1 (stereo unspecified) | nt | 0.95
O=C(NCc1csc(-c2ccccc2)n1)[C@H]1CSCN1C(=O)C1CCCO1 (stereo partly specified) | nt | 1.82
Cc1ccc2onc(CC(=O)Nc3cc(C)on3)c2c1 | -2.58 | 0.92
C=CCOc1ccc(/C(O)=C2\C(=O)C(=O)N(CCN(C)C)C2c2ccc(Cl)cc2)cc1C (stereo unspecified) | -1.43 | nt
Cc1ccc(-c2c(NCCCN(C)C)oc3c2c(=O)oc2ccccc23)cc1 | nt | 1.67
Cc1ccc2nc(C3=C(O)CN(c4ccc(F)cc4)C3=N)[nH]c2c1 | -1.1 | 3.14
COc1ccc(-c2onc(C)c2C)cc1S(=O)(=O)NC(C)Cc1ccco1 (stereo unspecified) | nt | 1.28
Cc1ccc(-c2nc(SCc3cc(=O)n4nc(CC(C)C)sc4n3)n[nH]2)cc1 | nt | 0.91
C=CCOC(=O)C1=C(C)NC(C)=C(C(=O)OCC=C)C1/C=C/c1ccccc1 | -0.43 | nt
CN1C(=O)C(C)(C)c2cc(S(=O)(=O)NCC3CCC(C(=O)N4CCCCC4)CC3)ccc21 (stereo unspecified) | nt | 2.43
COC(=O)c1c(-c2cccs2)csc1NC(=O)C1CCCCC1 | -0.85 | 0.22
COc1ccc(S(=O)(=O)[C@H]2CS(=O)(=O)C[C@@H]2NCCc2cccs2)cc1 | -1.48 | 1.94
Fc1ccc2c(c1)-c1c(cnc3cc(-c4ccc(Cl)cc4)nn13)CO2 | 0.59 | 2.25
CC(C(=O)N1CCN(c2ccccn2)CC1)n1ncn2cccc2c1=O (stereo unspecified) | -1.35 | 2.35
Cc1ccc(-c2c(N3CCC(C)CC3)c(=O)c2=O)cc1 | nt | 1.32
Cc1ccc(-c2c3c(=O)n(C)c(=O)n(C)c3c3n2-c2cc(C)ccc2OC3)cc1 | 0.2 | -1.31
CC(C)Cn1c(C2CC(=O)N(c3ccccc3Cl)C2)nc2ccccc21 (stereo unspecified) | -0.75 | 2.89
CCOC(=O)c1c(C)oc2ncnc(Nc3cc(C)cc(C)c3)c12 | nt | 0.46
COc1cccc(N2C(=O)N(c3ccc(Cl)cc3)C3CS(=O)(=O)CC32)c1 (stereo unspecified) | -1.43 | -1.26
CC(C)c1nnc(N2C(=O)c3oc4ccccc4c(=O)c3C2c2ccc(F)cc2)s1 (stereo unspecified) | -0.63 | 1.33

# High-throughput results deposited in PubChem by Center for Chemical Genomics, University of Michigan.
